Assay outcomes (PubChem)
eIF4H inh: inhibitors of RNA binding by human eIF4H | Q15056 | eIF4H fluorescence polarization binding assay | inhibition, % at 35 µM | 290,000 compounds, 0.94% hits;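 active means 50% or more with normal probe brightness, or confirmed in later tests; inconclusive means above 50% with abnormal brightness, or retests that disagree; inactive means below 50% or failed in later tests; about a fifth of its hits are not listed in these tables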;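 further: calls also rest on retests at 20 µM and on dose response follow-up; 0% = protein and probe with vehicle and 100% = probe without protein; strong numbers were not always called active; many hits fall short of the cut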
HIV Env fusion: blocks HIV Env-driven cell-cell fusion. 360,000 compounds, 1.1% hits. inhibition, % at 12.3 µM. HeLa-JRFL Env/CEM21 cell fusion, luciferase. AID 651610;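 active means mean replicate inhibition score of at least 50 and every replicate individually at or above 50; inconclusive means only one of the two criteria met; inactive means mean below 50 and not all replicates reaching 50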;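 further: 0% = plate neutral controls and 100% = maraviroc near 300 nM; one replicate is shown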
UUG fidelity: yeast start codon fidelity modulation; activity score, % at 18.7 µM; AID 602363; S. cerevisiae UUG-firefly luciferase reporter, luminescence/redox ratio; 350,000 compounds, 0.13% hits;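 active means replicate mean at a twofold rise or more, about +100% in these data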;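 further: firefly luciferase made from a UUG start codon reports start codon fidelity; reporter light over untreated wells divided by growth signal over untreated wells; some hits fall short of that in this replicate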
CSC inhib: blocks cancer stem cells | cancer stem cell-like cells viability, luminescence | inhibition, % at 7.5 µM | 300,000 compounds, 1.1% hits | AID 2717;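 active means mean at 75% or more and at least half the replicates too; inconclusive means mean and replicates disagree; tested in HMLE shEcad cells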;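 further: 0% = median of negative and 100% = median of positive control wells; the first replicate is given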
PABP polyA inh: PABP-poly(A) binding inhibition | PABP-poly(A) RNA binding, fluorescence polarization | inhibition, % at 35 µM | 290,000 compounds, 1% hits | AID 2014;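 active means 50% or more with normal probe brightness, or confirmed in later tests; inconclusive means above 50% with abnormal brightness, or retests that disagree; inactive means below 50% or failed in later tests; about a fifth of its hits are not listed in these tables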;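 further: calls also rest on retests at 20 µM and on dose response follow-up; controls were probe without protein and protein plus probe with vehicle; some compounds called inactive have numbers as strong as hits; many hits fall short of the cut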
Rce1 inh: blocks yeast Ras-converting enzyme; Q03530; yeast membranes, quenched prenylated peptide cleavage fluorescence; calls only; 290,000 compounds, 0.27% hits; AID 2563;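 active means fall in fluorescence gain of 50% or more versus controls, with final raw signal at or below 3038400; inconclusive means same 50% fall but final raw signal above 3038400; inactive means fall in fluorescence gain under 50%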;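 further: plate controls were neutral control wells for no effect and wells lacking membranes for full effect; tested at 10 µM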
Target sequence (Q03530 whole entry, looked up): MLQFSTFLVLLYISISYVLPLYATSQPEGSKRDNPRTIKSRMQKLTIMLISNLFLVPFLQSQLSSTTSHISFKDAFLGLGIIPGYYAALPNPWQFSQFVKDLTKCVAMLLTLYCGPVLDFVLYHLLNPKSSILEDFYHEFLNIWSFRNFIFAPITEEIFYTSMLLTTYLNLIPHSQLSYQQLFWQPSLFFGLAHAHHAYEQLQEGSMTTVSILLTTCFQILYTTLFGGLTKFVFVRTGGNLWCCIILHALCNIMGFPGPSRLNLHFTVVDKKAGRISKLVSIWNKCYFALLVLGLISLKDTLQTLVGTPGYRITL
MT1-MMP act inh: MT1-MMP (human) activation inhibition | P50281 | HT1080 RFP-PRO-GFP cells, GFP/RFP ratio fluorescence, overnight; percent of plate control window, DMSO zero | GFP/RFP ratio change, % at 20 µM | 360,000 compounds, 0.061% hits | AID 651647;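 active means GFP/RFP ratio change of at least 30% with cell ATP level not reduced by more than half and red fluorescence within 50% of control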; further: strong numbers were not always called active
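system = RFP-PRO-GFP reporter HT1080 cells | dosing = 20 µM single dose, 1% DMSO | timing = overnight cell settling, then overnight compound exposure, 37 °C, 5% CO2 | read-out basis = GFP/RFP fluorescence ratio | controls = DMSO and RFP-L50D-GFP cell wells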
eIF4H inh retest: recorded beside eIF4H inh, whose call it bears; inhibition, %; compound at 20 µM; confirmation average;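 mean of two retest wells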
PABP polyA inh retest: recorded beside PABP polyA inh, whose call it bears; inhibition, %; compound at 20 µM; confirmation repeats;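 mean of two retest wells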
MT1-MMP act inh RFP: also measured in MT1-MMP act inh; calls as there; RFP signal change, %; measured here: RFP expression control read;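 0 = vehicle wells; hits needed this value within 50% of zero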
Active calls of the source: *.

Screening Cc1ccc(S(=O)(=O)N[C@H](C(=O)N2CCC(C(=O)N[C@H](C(=O)O)c3ccccc3)CC2)C(C)C)cc1 returned eIF4H inh -15, UUG fidelity -1, CSC inhib -6, PABP polyA inh -3, Rce1 inh inactive, MT1-MMP act inh 15 and MT1-MMP act inh RFP 9.
For CC(C)OC(=O)CSc1nnc(-c2ccc(Cl)cc2Cl)o1 the results were eIF4H inh -5, UUG fidelity -4, CSC inhib 3, PABP polyA inh 1, Rce1 inh inactive, MT1-MMP act inh 2 and MT1-MMP act inh RFP 2.
`Cc1ccc(-c2csc3nc4c5ccccc5c(NCCCN(C)C)nn4c(=O)c23)cc1` gave eIF4H inh -12, HIV Env fusion -39, UUG fidelity 7, CSC inhib -7, PABP polyA inh inconclusive, Rce1 inh active, MT1-MMP act inh 2 and MT1-MMP act inh RFP -3.
For CCCCCn1c(SCCc2ccccc2)nc2c1c(=O)[nH]c(=O)n2C the results were eIF4H inh -4, UUG fidelity -48, CSC inhib -7, PABP polyA inh 5, Rce1 inh inactive, MT1-MMP act inh -2 and MT1-MMP act inh RFP -4.
O=C(COC(=O)c1c(Cl)cccc1Cl)NCc1cccs1 was read as HIV Env fusion -19, UUG fidelity -6, MT1-MMP act inh 0 and MT1-MMP act inh RFP 1.
`O=C(N/N=C/c1ccccc1)c1ccc(NC(=O)c2ccc(F)cc2)cc1` gave eIF4H inh 2, HIV Env fusion 3, UUG fidelity -13, CSC inhib 3, PABP polyA inh -1, MT1-MMP act inh 2 and MT1-MMP act inh RFP -1.
Screening COC(=O)C(CC(=O)c1ccc(Cl)cc1)c1ccccc1 (configuration not stated) returned HIV Env fusion 7, UUG fidelity -8, MT1-MMP act inh -1 and MT1-MMP act inh RFP -1.
For CCOc1cc(C2NC(=O)NC(c3ccccc3)=C2C(C)=O)ccc1OCC(N)=O (configuration not stated) the results were eIF4H inh -12, CSC inhib -17, PABP polyA inh 0 and Rce1 inh inactive.
For CC(=O)c1sc(Nc2nc3ccc(F)cc3s2)nc1C the results were eIF4H inh 9, HIV Env fusion -131, UUG fidelity -11, CSC inhib 27, PABP polyA inh 0, Rce1 inh inactive, MT1-MMP act inh -7 and MT1-MMP act inh RFP -13.
`O=[N+]([O-])c1ccc(OCc2cn([C@@H](CO)c3ccccc3)nn2)c(Br)c1` gave eIF4H inh -12, HIV Env fusion -3, UUG fidelity -15, CSC inhib -10, PABP polyA inh -9, Rce1 inh inactive, MT1-MMP act inh -1 and MT1-MMP act inh RFP 0.
Screening COc1ccc(S(=O)(=O)N2CCOCC2)cc1NC(=O)CO/N=C/c1ccccc1OC(F)F returned eIF4H inh 8, HIV Env fusion -2, UUG fidelity -18, CSC inhib 3, PABP polyA inh -3, Rce1 inh inactive, MT1-MMP act inh -3 and MT1-MMP act inh RFP -3.
`COC1c2ccccc2C(=O)N1Cc1ccc(F)cc1` (configuration not stated) gave eIF4H inh 0, HIV Env fusion 14, UUG fidelity -4, CSC inhib -6, PABP polyA inh -2, Rce1 inh inactive, MT1-MMP act inh -5 and MT1-MMP act inh RFP -2.
`CN(C)C=NC(=O)c1cc(C(=O)c2ccc(C(C)(C)C)cc2)c[nH]1` gave eIF4H inh -8, HIV Env fusion -97, CSC inhib -10, PABP polyA inh 8, MT1-MMP act inh 6 and MT1-MMP act inh RFP -4.
Screening CC(=O)N1CCN(C(=O)c2cccc(NS(=O)(=O)c3ccc(Br)cc3)c2)CC1 returned HIV Env fusion -8, CSC inhib -8, Rce1 inh inactive, MT1-MMP act inh 4 and MT1-MMP act inh RFP 0.
Screening CCOC(=O)/C(N=Nc1c(C)n(C)n(-c2ccccc2)c1=O)=C(\C)O returned eIF4H inh 5, HIV Env fusion 4, CSC inhib -4, PABP polyA inh 12, Rce1 inh inactive, MT1-MMP act inh 4 and MT1-MMP act inh RFP 9.
`COc1nc(OC)nc(N2CCC(C(=O)NCc3cccs3)CC2)n1` gave eIF4H inh -9, HIV Env fusion 9, UUG fidelity 5, CSC inhib -12, PABP polyA inh -2, Rce1 inh inactive, MT1-MMP act inh -3 and MT1-MMP act inh RFP -2.
For CN(c1ccccc1)S(=O)(=O)c1ccc(NC(=O)c2cccs2)cc1 the results were eIF4H inh 2, HIV Env fusion -2, CSC inhib -13, PABP polyA inh -11, Rce1 inh inactive, MT1-MMP act inh 1 and MT1-MMP act inh RFP -6.
`CC(C)N1CCC(C)(C(=O)Nc2ccc(Cl)c(Cl)c2)C1` (configuration not stated) gave HIV Env fusion 9, UUG fidelity -5, MT1-MMP act inh 1 and MT1-MMP act inh RFP 2.
Cc1nc2ccccc2c(=O)n1-c1cccc(NS(=O)(=O)c2ccccc2)c1 was read as CSC inhib -9, Rce1 inh inactive, MT1-MMP act inh 1 and MT1-MMP act inh RFP -2.
`CC(C)c1nc2ccc(NC(=O)C3CCCCC3)cc2[nH]1` gave eIF4H inh 0, UUG fidelity -7, CSC inhib -6, PABP polyA inh -8, MT1-MMP act inh 4 and MT1-MMP act inh RFP -1.

The last 2 compounds of the section before come first, to join the parts:
Cc1nc2ccccc2c(=O)n1-c1cccc(NS(=O)(=O)c2ccccc2)c1 was read as CSC inhib -9, Rce1 inh inactive, MT1-MMP act inh 1 and MT1-MMP act inh RFP -2.
`CC(C)c1nc2ccc(NC(=O)C3CCCCC3)cc2[nH]1` gave eIF4H inh 0, UUG fidelity -7, CSC inhib -6, PABP polyA inh -8, MT1-MMP act inh 4 and MT1-MMP act inh RFP -1.
Screening Cc1ccccc1OCC(=O)N/N=C/c1ccc2c(c1)OCCO2 returned eIF4H inh -3, UUG fidelity -9, CSC inhib 35, PABP polyA inh -6, Rce1 inh inactive, MT1-MMP act inh -4 and MT1-MMP act inh RFP 2.
Screening CCOC(=O)c1ccc(C(=O)OCC)c(NC(=S)Nc2ccc([N+](=O)[O-])cc2OC)c1 returned eIF4H inh 1, HIV Env fusion -8, UUG fidelity -14, CSC inhib 5, PABP polyA inh 18, Rce1 inh inactive, MT1-MMP act inh 4 and MT1-MMP act inh RFP -2.
Screening O=C(OCc1nc2ccccc2s1)c1ccc(Br)o1 returned eIF4H inh 7.1*, HIV Env fusion 2, CSC inhib -17, PABP polyA inh 70*, Rce1 inh inactive, MT1-MMP act inh -1, eIF4H inh retest 97*, PABP polyA inh retest 64* and MT1-MMP act inh RFP 1.
Screening COc1ccc(Cl)cc1NC(=O)CSc1nc(Nc2ccccc2)nc(N2CCOCC2)n1 returned eIF4H inh 2, HIV Env fusion 47, UUG fidelity -16, CSC inhib 0, PABP polyA inh 2, Rce1 inh inactive, MT1-MMP act inh -4 and MT1-MMP act inh RFP -6.
Screening O=C(N[C@H]1C/C=C\C[C@@H](CC(=O)N(CCO)Cc2ccccc2)C(=O)N2CCC[C@@H]2COC1=O)OCC1c2ccccc2-c2ccccc21 returned UUG fidelity -12, CSC inhib 5, MT1-MMP act inh -3 and MT1-MMP act inh RFP 5.
Screening CCC/C=C/c1ccc(CN2C(C(C)C)C(=O)N(Cc3cn(CCC4OCCO4)nn3)CCS2(=O)=O)cc1 (configuration not stated) returned HIV Env fusion 11, UUG fidelity 4, MT1-MMP act inh 2 and MT1-MMP act inh RFP -4.
O=C(COc1ccc(-c2ccccc2)cc1)NN=C1CCCC1 was read as eIF4H inh -12, HIV Env fusion -2, UUG fidelity -6, CSC inhib 3, PABP polyA inh -2, Rce1 inh inactive, MT1-MMP act inh 13 and MT1-MMP act inh RFP 2.
For OCC(Cc1ccccc1)NCc1ccccc1C(F)(F)F (configuration not stated) the results were eIF4H inh 2, HIV Env fusion 18, CSC inhib -7, PABP polyA inh 8, Rce1 inh inactive, MT1-MMP act inh 0 and MT1-MMP act inh RFP 3.
For Cc1ccccc1C(=O)Nc1nc2c(C)csc2c(=O)s1 the results were eIF4H inh -3, HIV Env fusion -9, CSC inhib 9, PABP polyA inh -5, Rce1 inh inactive, MT1-MMP act inh 0 and MT1-MMP act inh RFP -9.
Screening CC(C)N(CCNC(=O)C1CCCN(c2ncnc3c2nc2n3CCCCC2)C1)Cc1ccccc1 (configuration not stated) returned eIF4H inh -4, HIV Env fusion 28, UUG fidelity 0, CSC inhib -5, PABP polyA inh 4, Rce1 inh inactive, MT1-MMP act inh -1 and MT1-MMP act inh RFP -1.
For CCCCCCCCN1[C@@H](CC(C)=O)c2cc(C(F)(F)F)ccc2S1(=O)=O the results were HIV Env fusion 61*, UUG fidelity -14, CSC inhib -19, Rce1 inh inactive, MT1-MMP act inh 4 and MT1-MMP act inh RFP -12.
COc1cc([N+](=O)[O-])c(OC)cc1SCc1n[nH]c(=S)n1-c1ccc(F)cc1 was read as eIF4H inh 1, HIV Env fusion -2, UUG fidelity -10, CSC inhib 18, PABP polyA inh 14, Rce1 inh inactive, MT1-MMP act inh 2 and MT1-MMP act inh RFP -3.
Screening Cc1cc(CNC(=O)CCc2nnc(CCCCc3ccccc3)o2)nn1C returned eIF4H inh -1, HIV Env fusion 16, CSC inhib -3, PABP polyA inh -3, Rce1 inh inactive, MT1-MMP act inh 5 and MT1-MMP act inh RFP 6.
Screening C[C@@H](NC(=O)c1[nH]cnc1C(=O)Nc1nccs1)c1ccccc1 returned HIV Env fusion -24, UUG fidelity 0, CSC inhib 18, MT1-MMP act inh 8 and MT1-MMP act inh RFP 1.
Screening CCOC(=O)C1=C(C)N(C)C(C)=C(C(=O)OCC)C1c1ccccc1 returned eIF4H inh -12, HIV Env fusion -62, UUG fidelity -11, CSC inhib 1, PABP polyA inh -10, Rce1 inh inactive, MT1-MMP act inh 7 and MT1-MMP act inh RFP -2.
For O=S(=O)(NCCc1ccccn1)c1ccc(F)c(F)c1 the results were eIF4H inh 23, HIV Env fusion -1, UUG fidelity -5, CSC inhib -2, PABP polyA inh -6, Rce1 inh inactive, MT1-MMP act inh -1 and MT1-MMP act inh RFP 0.
O=C(CSc1nnc2scc(-c3ccccc3)n12)NCC1CCCO1 (configuration not stated) was read as eIF4H inh -12, HIV Env fusion -1, UUG fidelity -10, PABP polyA inh -5, Rce1 inh inactive, MT1-MMP act inh -5 and MT1-MMP act inh RFP 0.
For Cc1nn(C(=O)c2cccnc2)c(C)c1Sc1ccc(Br)cc1 the results were eIF4H inh 6, UUG fidelity -21, CSC inhib -1, PABP polyA inh -2, Rce1 inh inactive, MT1-MMP act inh 5 and MT1-MMP act inh RFP -1.
`Cc1c(C)[n+](=O)c(-c2ccc(Br)cc2)c(C)n1[O-]` gave eIF4H inh 15, HIV Env fusion -2, CSC inhib 9, PABP polyA inh 12, Rce1 inh inactive, MT1-MMP act inh 1 and MT1-MMP act inh RFP 2.
Screening COc1ccc(-n2nnnc2C(c2cccc3ccccc23)N2CCN(C/C=C/c3ccccc3)CC2)cc1 (configuration not stated) returned HIV Env fusion 18, UUG fidelity 17, MT1-MMP act inh -2 and MT1-MMP act inh RFP -14.
`Cc1cc2nc(-c3cccc(Br)c3)c(CC(C)(C)C)n2c(C)c1Br` gave HIV Env fusion 3, UUG fidelity -13, MT1-MMP act inh -5 and MT1-MMP act inh RFP -7.
`CC(C)(C)c1cc(CN2CCCCC2)cc(C(C)(C)C)c1O` gave eIF4H inh 3, HIV Env fusion -45, CSC inhib -9, PABP polyA inh 8 and Rce1 inh inactive.
For O=C(COc1ccccc1)N[C@@H]1c2ccccc2CC[C@@H]1O the results were HIV Env fusion 31, UUG fidelity 0, MT1-MMP act inh 4 and MT1-MMP act inh RFP 1.
